Bioassay records (PubChem)
NS1 function inh = influenza NS1 inhibition; S. cerevisiae slowed by influenza A NS1, growth recovery by OD600; Potency, µM (series often up to 46.1 µM), without a hit: top-dose activity, positive = more growth; actives 0.4% (n = 270,000); AID 2326; further: actives are rising curves; nearly all actives have a fitted effect of over 50% in size
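In this qHTS, NS1 from influenza A is expressed in budding yeast, where it slows growth. Cells are switched from glucose to 2% galactose medium (pH 6.0, -URA), treated with compound, and growth recovery is read at OD600.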
Cruzain noTriton = cruzain (T. cruzi) inhibition without detergent. P25779. purified cruzain, Z-FR-AMC fluorescence, no detergent. Potency, µM, for the others: max response, negative = inhibition, usual class: inhibitors. actives 2.3% (n = 200,000). AID 1476; active means well fitted curve in the direction sought with a large enough effect; inconclusive means small, poorly fitted or top-dose-only effect, or another doubt; inactive means no such curve, though single readings can be large; an effect the other way counts as inactive or inconclusive;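 further: plate controls were enzyme without inhibitor for no effect and buffer without enzyme for full effect; nearly all actives have a fitted effect of over 40% in size; top concentration of the series not given in the record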
Target sequence (P25779 123-467 limits assumed): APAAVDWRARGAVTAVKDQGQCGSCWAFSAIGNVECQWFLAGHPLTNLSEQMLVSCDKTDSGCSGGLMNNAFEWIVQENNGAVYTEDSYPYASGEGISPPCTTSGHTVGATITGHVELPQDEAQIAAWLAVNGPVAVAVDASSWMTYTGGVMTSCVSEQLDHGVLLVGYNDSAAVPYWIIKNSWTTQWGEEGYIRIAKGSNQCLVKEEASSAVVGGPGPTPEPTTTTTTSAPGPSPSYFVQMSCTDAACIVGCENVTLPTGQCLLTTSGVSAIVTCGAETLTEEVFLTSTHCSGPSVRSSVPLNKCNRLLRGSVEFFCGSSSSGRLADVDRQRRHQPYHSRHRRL
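Purified cruzain at 1.5 nM, pre-incubated 15 min with compound at room temperature in 100 mM sodium acetate pH 5.5, 5 mM DTT, 0.00005% Triton X-100. Reaction started with 2 uM Z-FR-AMC; AMC fluorescence increase over 60 s gives rate.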
Cruzain Triton = blocks cruzain activity in presence of Triton detergent; P25779; purified cruzain, Z-FR-AMC fluorescence, 0.01% Triton; Potency, µM, for the others: max response, negative = inhibition, usual class: inhibitors; actives 0.43% (n = 200,000); AID 1478; active means well fitted curve in the direction sought with a large enough effect; inconclusive means small, poorly fitted or top-dose-only effect, or another doubt; inactive means no such curve, though single readings can be large; an effect the other way counts as inactive or inconclusive;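 further: plate controls were neutral wells for no effect and buffer without enzyme for full effect; nearly all actives have a fitted effect of over 40% in size; top concentration of the series not given in the record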
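Enzyme 1.5 nM, Z-FR-AMC 2 uM, NaOAc 100 mM pH 5.5, DTT 5 mM, Triton X-100 0.01%; 15 min RT compound preincubation; kinetic ex360/em450, 60 s delta.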
SARS PLP yeast = blocks SARS-CoV papain-like protease in a yeast assay. S. cerevisiae expressing SARS-CoV PLpro, growth rescue; control for the full effect not named in the record. Potency, µM (highest dose often 32.9 µM), for the others: top-dose activity, positive = growth rescue. actives 0.19% (n = 330,000); further: 0% is about no effect; nearly all actives have a fitted effect of over 55% in size; growth read by luminescence after 48 h
MARV entry inh = Marburg virus entry inhibition | Marburg virus pseudotyped entry inhibition, cell reporter; control for the full effect not named in the record; about a third of the inactives were read at about 46 µM | Potency, µM (highest dose often 37.8 µM), inactives show at the highest dose activity change, negative = inhibition, most hits filed as inhibitors | actives 1.8% (n = 300,000); active = well fitted inhibition curve with a large enough effect; inconclusive = small, poorly fitted or top-dose-only effect, or effect the other way; inactive = flat fitted curve, though single readings scatter; tested in HEK293 cells; about a fifth of its hits are not listed in these tables; further: on the % scale 0 is the no-effect control and ±100 the full control effect; luciferase read-out
LASV entry inh = inhibitors of Lassa virus binding or cell entry | Lassa virus pseudotype entry inhibition, cell reporter; control for the full effect not named in the record | Potency, µM (doses to about 37.9 µM), for inactives: top-dose activity change, negative = inhibition, hits mostly inhibitors | actives 1.2% (n = 300,000); active means well fitted inhibition curve with a large enough effect; inconclusive means small, poorly fitted or top-dose-only effect, or effect the other way; inactive means flat fitted curve, though single readings scatter; tested in HEK293 cells; further: on the % scale 0 is the no-effect control and ±100 the full control effect; nearly all actives have a fitted effect of over 50% in size; luciferase read-out
RE007 growth inh = less growth of the S. pombe RE007 Vpr strain | S. pombe RE007 Vpr strain, BacTiter-Glo ATP luminescence, 24 h; control for the full effect not named in the record | Potency, µM (titrated, usually from 92.2 µM), inactives show at the top dose activity change, negative = less growth | actives 0.21% (n = 360,000) | AID 651644; active = well fitted falling curve with a large enough effect; inconclusive = small, poorly fitted or top-dose-only effect; inactive = no such curve, though single readings can be large or run the other way;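 further: on the % scale 0 is the no-effect control and ±100 the full control effect; nearly all actives have a fitted effect of over 50% in size; the assay follows cell death caused by Vpr and the record does not say whether a fall means rescue or toxicity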
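Fission yeast RE007 carrying one integrated HIV-1 vpr copy, seeded at OD 0.01 in PMG+AL medium with 23 nL pinned compound. Grown 24 h at 30 degrees; viability read by BacTiter-Glo luminescence after 5 min.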
StopGo reporter = FMDV 2A StopGo reporter, luciferase signal | AID 1159524 | actives 1.2% (n = 410,000) | human cells with a luciferase reporter of 2A StopGo recoding; control for the full effect not named in the record | Potency, µM (top dose mostly 57.9 µM), inactives show top-dose signal change, negative = less light; active = well fitted falling curve with a large enough effect; inconclusive = small, poorly fitted or top-dose-only effect; inactive = no such curve, though single readings can be large or run the other way; tested in HEK293T cells; further: on the % scale 0 is the no-effect control and ±100 the full control effect; nearly all actives have a fitted effect of over 45% in size; luciferase light after 4 h
Active calls of the source: *; u = inconclusive; x = no result given; & = joins results of further samples; [ ] = remark or other dose. Unless noted, the call rests on the fitted dose curve; in most records, active means well fitted rising curve with a large enough effect; inconclusive means small, poorly fitted or top-dose-only effect; inactive means no such curve, though single readings can be large or run the other way. Potency means the concentration at half of the fitted maximal effect.

SMILES	NS1 function inh	Cruzain noTriton	Cruzain Triton	SARS PLP yeast	MARV entry inh	LASV entry inh	RE007 growth inh	StopGo reporter
O=C1Nc2cc(C(=O)N3CCOCC3)ccc2S/C1=C\c1ccccc1	18.4%	x	x	16.0%	x	x	-1.9%	-14.4%
Cc1cc(Cl)ccc1OCCCC(=O)N/N=C/c1cccc([N+](=O)[O-])c1	3.8%	1.1%	-7.6%	19.8%	u	-8.2%	-4.0%	-24.7%
COc1cc(C)nc(Oc2ccc(OCCOc3ccccc3)nn2)n1	-3.4%	x	x	1.0%	x	x	-0.4%	-16.6%
CCCOC(=O)c1ccc(O)c(OC)c1	-0.9%	x	x	1.2%	14.8%[14.2 µM]	9.6%	4.1%	24.8%
COc1cc(/C=C/c2nc3ccccc3c(=O)[nH]2)cc(Cl)c1O	0.6%	x	x	13.0%	3.6%[46.1 µM]	x	7.9%	0.0%
COC(=O)c1ccc(/C=N\NC(=O)CC(=O)NCCc2ccccc2)cc1	-0.3%	x	x	0.2%	6.0%	-13.3%	-6.5%	-12.9%
CC(=O)Oc1ccc(/C=C2/C(=O)N(c3ccccc3)N=C2C)cc1	3.9%	x	x	-0.4%	10.5%[46.1 µM]	2.8%	5.3%	-1.2%
CCOC(=O)c1cnc2c(C)cc(C)cc2c1Nc1ccc(N2CCOCC2)cc1	x	6.8%	-0.2%	x	x	3.1%[46.1 µM]	x	u
Cc1nn(CC(=O)NC(C)C(C)C)c(C)c1S(=O)(=O)N1CCCCC1 (stereo not given)	x	x	x	1.2%	u	9.5%	3.3%	-1.7%
Cc1cccc(N2CCN(C(=O)c3ccccc3NC(=O)C3=CSCCO3)CC2C)c1 (stereo not given)	-4.0%	x	x	1.4%	x	x	2.4%	-19.3%
CC(C)c1ccc(NC2CCCN(C(=O)c3cnn(C(C)C)c3)C2)cc1 (stereo not given)	11.2%	x	x	0.0%	x	x	10.7%	u
O=c1cc(-c2ccc(F)cc2)nc(SCc2nc(-c3cccc(Cl)c3)no2)[nH]1	x	17.6%	2.1%	x	x	5.0%[46.1 µM]	x	6.8%
COc1ccc(Cn2c(C)c(C)c(C#N)c2NC(=O)Nc2cccc(C)c2)cc1	-3.2%	u	2.2%	-3.0%	u	-58.7%	-9.6%	12.8%
Cc1ccccc1OCC(=O)NN1CCN(C)CC1	27.6%	-6.3%	0.7%	28.2%	5.8%	4.2%	x	-24.0%
Cc1ccccc1-n1c(-c2csc(C)c2C)n[nH]c1=S	15.3%	-11.1%	-3.1%	23.1%	u	12.9%	14.1%	21.8%
Cn1cnc(S(=O)(=O)N2CCCC(C(=O)NCc3ccc(F)cc3)C2)c1 (stereo not given)	x	3.6%	1.2%	x	x	0.7%[46.1 µM]	x	-4.4%
CC(=O)Nc1cc(NC(C)=O)c(CC(C)C)s1	-1.2%	3.5%	4.7%	-5.5%	5.8%	10.2%	0.6%	12.4%
O=C(CN1C(=O)c2ccccc2C1=O)Nc1nc(-c2cccc([N+](=O)[O-])c2)cs1	1.5%	3.2%	-2.4%	-4.3%	2.0%	x	x	x
Cc1cccc(N2CCN(c3ccc(C(N)=O)cc3[N+](=O)[O-])CC2)c1C	2.0%	x	x	0.5%	-9.0%[46.1 µM]	0.1%[46.1 µM]	-11.8%	-2.4%
c1ccc(-n2ncc3c(NCC4CCCO4)ncnc32)cc1 (stereo not given)	8.7%	1.8%	5.9%	2.0%	-17.8%	u	2.7%	36.4%[activator]
CSCCC(NC(=O)C12CC3CC(CC(C3)C1)C2)C(=O)OCC(=O)c1ccc(C)cc1 (stereo not given)	-6.4%	14.1%	-1.7%	5.2%	-9.4%	0.4%	5.7%	-13.0%
Cc1[nH]c2ccccc2c1/C=N/NC(=O)c1cc(-c2ccccc2)n[nH]1	-4.0%	x	x	-1.7%	u	u	-1.4%	-13.6%
COc1ccc(NC(=O)CCOc2ccccc2)cc1	-31.1%	-15.4%	-7.1%	-1.4%	u	u	-10.5%	31.0%[activator]
O=C(COc1ccccc1Cl)NCCNC(=O)c1cccnc1	-0.1%	x	x	-0.2%	-2.5%[46.1 µM]	-2.6%	-3.3%	35.4%[activator]
Cc1cc(C)c(NC(=O)CS(=O)CC(=O)Nc2ccc(N3CCOCC3)cc2)c(C)c1 (stereo not given)	0.7%	x	x	-9.5%	16.0%[46.1 µM]	6.0%[46.1 µM]	0.7%	49.5%[activator]
CCOC(=O)Nc1sc(C)nc1-c1ccccc1	-0.9%	15.8%	-0.1%	-1.9%	4.3%	7.3%	0.9%	0.0%
CCN(Cc1ccccc1)S(=O)(=O)c1ccc(S(=O)(=O)N2CCN(CCC#N)CC2)cc1	-24.0%	18.1%	-1.0%	1.0%	x	x	4.5%	-11.0%
CCOC(=O)C1CCN(CC(O)COC(CC)c2ccccc2)CC1 (stereo not given)	-11.6%	x	x	-11.5%	x	x	2.7%	3.9%
Cc1ccc(Nc2cc(C)nc(-c3ccccc3)n2)cc1	-41.0%	x	x	-5.8%	6.6%[46.1 µM]	30.8%[46.1 µM]	-6.7%	29.0%
COc1ccc(NC(=O)NC2CCCc3ccccc32)cc1OC (stereo not given)	-4.7%	x	x	-4.7%	x	x	-6.9%	-18.7%

One compound at a time (already shown).
O=C(COc1ccccc1Cl)NCCNC(=O)c1cccnc1 as listed: NS1 function inh = -0.1%; Cruzain noTriton = x; Cruzain Triton = x; SARS PLP yeast = -0.2%; MARV entry inh = -2.5%[46.1 µM]; LASV entry inh = -2.6%; RE007 growth inh = -3.3%; StopGo reporter = 35.4%[activator]
Cc1ccc(Nc2cc(C)nc(-c3ccccc3)n2)cc1 as listed: NS1 function inh = -41.0%; Cruzain noTriton = x; Cruzain Triton = x; SARS PLP yeast = -5.8%; MARV entry inh = 6.6%[46.1 µM]; LASV entry inh = 30.8%[46.1 µM]; RE007 growth inh = -6.7%; StopGo reporter = 29.0%
CCOC(=O)C1CCN(CC(O)COC(CC)c2ccccc2)CC1 (stereo not given) as listed: NS1 function inh = -11.6%; Cruzain noTriton = x; Cruzain Triton = x; SARS PLP yeast = -11.5%; MARV entry inh = x; LASV entry inh = x; RE007 growth inh = 2.7%; StopGo reporter = 3.9%

(more compounds)
SMILES	NS1 function inh	Cruzain noTriton	Cruzain Triton	SARS PLP yeast	MARV entry inh	LASV entry inh	RE007 growth inh	StopGo reporter
O=C(OC1CSc2nc3ccccc3n2C1)c1ccco1 (stereo not given)	-1.4%	-15.1%	-4.0%	-0.6%	5.6%	1.7%	-7.5%	0.0%
Cc1ccc(-c2n[nH]c(=O)c3ccccc23)cc1S(=O)(=O)NCCN1CCOCC1	-3.1%	3.3%	-0.5%	-1.8%	u	13.1%	-0.4%	31.2%[activator]
COc1ccc(S(=O)(=O)c2c(O)c3ccc(C(=O)Nc4ccccc4F)cc3[nH]c2=O)cc1	19.6%	x	x	-0.3%	x	x	9.2%	-12.2%
CSc1cccc(NC(=O)CN(C)S(=O)(=O)c2ccc3c(c2)CCCN3C(C)=O)c1	x	24.2%	-2.1%	x	x	-20.5%[46.1 µM]	x	-25.8%
COc1ccccc1NC(=O)Nc1ccc2c(c1)OCCO2	-19.0%	1.7%	-3.8%	1.7%	16.0%	-10.9%	-20.6%	19.5%
CN(C)CCN(CC1CCCN(Cc2ccccc2F)C1)C(=O)Cc1ccccc1F (stereo not given)	-2.7%	x	x	1.3%	x	x	3.4%	-2.4%
Nc1ncc(S(=O)(=O)Nc2ccc(F)cc2F)cn1	x	-6.1%	-0.6%	x	x	1.9%[46.1 µM]	x	4.9%
O=C(Nc1nnc(S(=O)(=O)N2CCOCC2)s1)c1ccccc1F	14.3%	5.9%	-1.3%	-2.3%	x	4.2%[46.1 µM]	-20.7%	31.9%&26.7%[activator]
CCOc1ccc(N=C2NN=C(c3cc(C)n(CC4CCCO4)c3C)CS2)cc1 (stereo not given)	14.3%	x	x	-0.4%	21.2%[46.1 µM]	3.7%	-8.9%	26.0%
O=C(CCNC(=O)C1CCN(S(=O)(=O)c2ccc(F)cc2)CC1)NCc1cccnc1	1.9%	x	x	6.8%	x	x	12.4%	22.7%

Continued; it opens with the 2 that closed the last part.
SMILES	NS1 function inh	Cruzain noTriton	Cruzain Triton	SARS PLP yeast	MARV entry inh	LASV entry inh	RE007 growth inh	StopGo reporter
CCOc1ccc(N=C2NN=C(c3cc(C)n(CC4CCCO4)c3C)CS2)cc1 (stereo not given)	14.3%	x	x	-0.4%	21.2%[46.1 µM]	3.7%	-8.9%	26.0%
O=C(CCNC(=O)C1CCN(S(=O)(=O)c2ccc(F)cc2)CC1)NCc1cccnc1	1.9%	x	x	6.8%	x	x	12.4%	22.7%
O=S(=O)(Nc1cccc2c1CCCC2)c1ccc(Cl)cc1	-63.2%	-4.0%	-7.0%	-75.2%	u	-0.4%	x	-2.4%
CCOCCn1c(CN2CCCCC2C)nc2c1c(=O)n(C)c(=O)n2C (stereo not given)	7.8%	x	x	-8.1%	x	x	-2.5%	0.0%
CCCN1CCN(CCCNC(=O)c2ccc3c(c2)sc2nc(-c4ccc(OCC)cc4)cn23)CC1	x	10.3%	-1.8%	x	u	x	x	-19.0%
O=C(CSc1nnc(-c2ccncc2)o1)NC1C2CC3CC(C2)CC1C3 (stereo not given)	-10.3%	-26.8%	1.5%	-14.8%	u	-14.2%	-21.6%	-4.9%
CCc1ccc(OCCOC(=O)Nc2ccccc2)cc1	7.7%	x	x	-1.4%	x	x	5.6%	-6.9%
CCCCCCCC(=O)N/N=C(\C)c1cccnc1	-8.7%	8.7%	-0.5%	-7.5%	2.9%	-9.7%	3.6%	-8.0%
Cc1cccc(C)c1Nc1c(-c2ccccc2F)nc2cccc(C)n12	x	1.9%	-13.7%	x	u	-22.3%[46.1 µM]	x	u
CC1CCCCC1NC(=O)COC(=O)/C=C/c1ccc2c(c1)OCO2 (stereo not given)	11.9%	-2.3%	27.9%	14.5%	13.3%	0.8%	-18.2%	-14.2%
CCOc1ccc2nc(Cl)c(/C=C/C(=O)c3ccco3)cc2c1	-1.2%	-16.2%	-1.1%	-1.6%	u	u	-17.8%	u
